Vaccinia Venus: inhibitors of vaccinia virus (Venus reporter) | Vaccinia virus Venus reporter expression, fluorescence | Potency, µM (titrated, usually from 36.5 µM), for inactives: at the highest dose activity change, negative = inhibition, usual class: inhibitors | hit rate 0.46% among 330,000 | AID 720580; active means well fitted inhibition curve with a large enough effect; inconclusive means small, poorly fitted or top-dose-only effect; inactive means no such curve, though single readings can be large or run the other way; tested in A549 cells; note: nearly all actives have a fitted effect of over 30% in size; inactives centre near -10
VACV mCherry inh: inhibitors of vaccinia virus infection (mCherry reporter signal); Potency, µM (highest dose often 36.5 µM), without a hit: top-dose activity change, negative = inhibition, most hits filed as inhibitors; hit rate 0.63% among 310,000; Vaccinia virus mCherry reporter infection, fluorescence; about a quarter of the inactives have no number; active = well fitted inhibition curve with a large enough effect; inconclusive = small, poorly fitted or top-dose-only effect; inactive = no such curve, though single readings can be large or run the other way; tested in A549 cells; note: nearly all actives have a fitted effect of over 35% in size; inactives centre near -10
* marks the source's active call; other numbers are inactive results; i = inactive; ? = inconclusive; · = not tested or not shown; [ ] = another dose, or the depositor's remark. % is set by controls: 0 for no effect and ±100 for the full control effect; potency is the fitted concentration of half-maximal effect.

CC(C)Nc1nnc(SCC(=O)c2c[nH]c3ccccc23)s1
  Vaccinia Venus: -11%
  VACV mCherry inh: i

COc1cc(OC)c(OC)cc1CN(C)CCc1ccccn1
  Vaccinia Venus: -2%
  VACV mCherry inh: ·

Cc1cccc(C)c1NC(=O)C(c1ccccc1)N1CCN(c2ccc(F)cc2)CC1 (configuration not stated)
  Vaccinia Venus: 1%
  VACV mCherry inh: 1%

O=C(CSc1ccccc1)N1CCc2c([nH]c3ccccc23)C1c1ccc(F)cc1 (configuration not stated)
  Vaccinia Venus: -23%
  VACV mCherry inh: i

COc1cccc(NC(=O)CN(C)C(=O)c2ccc(-c3cccc(C(F)(F)F)c3)o2)c1
  Vaccinia Venus: -11%
  VACV mCherry inh: -22%

O=C(COc1ccc(Br)cc1)N(Cc1cccs1)C1CCS(=O)(=O)C1 (configuration not stated)
  Vaccinia Venus: -4%[7.34 µM]
  VACV mCherry inh: -3%[7.34 µM]

COc1ccccc1CNC(=O)C(CC(C)C)N1Cc2ccccc2C1=O (configuration not stated)
  Vaccinia Venus: -12%
  VACV mCherry inh: -13%

C[N+]1([O-])[C@@H]2Cc3cc4c(cc3[C@@H]1Cc1cc3c(cc12)OCO3)OCO4 (some centres not stated)
  Vaccinia Venus: -5%
  VACV mCherry inh: -13%

COc1cccc(NC(=O)Cn2c(CCC(=O)O)ccc2-c2ccc(Cl)cc2)c1
  Vaccinia Venus: 5%
  VACV mCherry inh: -2%

COc1ccc(/C=N/NC(=O)c2cc(=O)[nH]c3ccccc23)cc1OC
  Vaccinia Venus: -13%
  VACV mCherry inh: -9%

CCOc1cc(CNC(=O)Cn2c(-c3cccs3)cc3cc(F)ccc32)ccc1OC
  Vaccinia Venus: -17%
  VACV mCherry inh: -11%

CCCC(=O)c1ccc2c(c1)OCCO2
  Vaccinia Venus: -3%
  VACV mCherry inh: -14%

Cc1cc(NC(=O)Cn2nc(C(=O)O)c3ccccc3c2=O)c([N+](=O)[O-])cc1C
  Vaccinia Venus: -5%
  VACV mCherry inh: -5%

CC(C)c1nc(SCC(=O)NC(=O)NC(C)(C)C)n[nH]1
  Vaccinia Venus: -8%
  VACV mCherry inh: -15%

COc1ccc(C(OCC(O)CNCCc2ccccc2)c2ccc(OC)cc2)cc1 (configuration not stated)
  Vaccinia Venus: -26%
  VACV mCherry inh: i

COc1ccc(CCNc2ncnc3c2[nH]c2cc(OC)c(OC)cc23)cc1OC
  Vaccinia Venus: -9%
  VACV mCherry inh: -11%

COC(=O)CNC(=O)COC(=O)/C=C/c1ccc2ccccc2n1
  Vaccinia Venus: -2%
  VACV mCherry inh: -3%

CC[C@H](C)[C@H](NC(N)=O)C(=O)NCCc1ccc(OC)c(OC)c1
  Vaccinia Venus: -11%
  VACV mCherry inh: -13%

CN(Cc1ccccc1)c1ccc(N2C(=O)CCC2=O)cc1[N+](=O)[O-]
  Vaccinia Venus: -9%
  VACV mCherry inh: 0%

Cc1csc2ncc(C(=O)N3CCCc4ccccc43)c(=O)n12
  Vaccinia Venus: -4%
  VACV mCherry inh: 4%

CCCc1nc(SCC(=O)N2CCCc3ccccc32)c2c(=O)n(C)c(=O)n(C)c2n1
  Vaccinia Venus: -28%
  VACV mCherry inh: -3%

CCn1c(SCC(=O)Nc2cc(OC)ccc2OC)nc2c(c1=O)SCC2
  Vaccinia Venus: -5%
  VACV mCherry inh: i

CC(=O)Nc1ccc(S(=O)(=O)Nc2cccc(-c3csc(C)n3)c2)cc1
  Vaccinia Venus: -3%
  VACV mCherry inh: -6%

CCOc1ccc(Cc2c(C)[nH]c3ccc(C(=O)O)cc3c2=S)cc1
  Vaccinia Venus: -5%
  VACV mCherry inh: i

O=C(O)CCCCCCC1C(=O)NC(=O)N1CCC(O)C1CCCCC1 (configuration not stated)
  Vaccinia Venus: -9%
  VACV mCherry inh: -1%

CC(C)(C)NC(=O)Cn1nnc(-c2cccs2)n1
  Vaccinia Venus: -9%
  VACV mCherry inh: ·

CNS(=O)(=O)c1ccc(Oc2ccc(S(=O)(=O)NC)cc2)cc1
  Vaccinia Venus: ?
  VACV mCherry inh: ·

Part of the list above in a different format.
Structure | Vaccinia Venus | VACV mCherry inh
COc1ccc(C(OCC(O)CNCCc2ccccc2)c2ccc(OC)cc2)cc1 (configuration not stated) | -26% | i
COc1ccc(CCNc2ncnc3c2[nH]c2cc(OC)c(OC)cc23)cc1OC | -9% | -11%
COC(=O)CNC(=O)COC(=O)/C=C/c1ccc2ccccc2n1 | -2% | -3%
CC[C@H](C)[C@H](NC(N)=O)C(=O)NCCc1ccc(OC)c(OC)c1 | -11% | -13%
CN(Cc1ccccc1)c1ccc(N2C(=O)CCC2=O)cc1[N+](=O)[O-] | -9% | 0%
Cc1csc2ncc(C(=O)N3CCCc4ccccc43)c(=O)n12 | -4% | 4%
CCCc1nc(SCC(=O)N2CCCc3ccccc32)c2c(=O)n(C)c(=O)n(C)c2n1 | -28% | -3%
CCn1c(SCC(=O)Nc2cc(OC)ccc2OC)nc2c(c1=O)SCC2 | -5% | i
CC(=O)Nc1ccc(S(=O)(=O)Nc2cccc(-c3csc(C)n3)c2)cc1 | -3% | -6%
CCOc1ccc(Cc2c(C)[nH]c3ccc(C(=O)O)cc3c2=S)cc1 | -5% | i
O=C(O)CCCCCCC1C(=O)NC(=O)N1CCC(O)C1CCCCC1 (configuration not stated) | -9% | -1%
CC(C)(C)NC(=O)Cn1nnc(-c2cccs2)n1 | -9% | ·
CNS(=O)(=O)c1ccc(Oc2ccc(S(=O)(=O)NC)cc2)cc1 | ? | ·

Source: PubChem BioAssay (National Center for Advancing Translational Sciences (NCATS))
